# From PubChem BioAssay
# LANA-H2B inh – blocks KSHV LANA binding to histone H2A/H2B; Q9QR71; cell-free LANA-H2A/H2B peptide, fluorescence polarization; inhibition, % (no concentration beside the values); 0.6% of 320,000 active; AID 2629; in the data active = inhibition mostly above about 10%, no sharp cut-off; inactive = mostly below about 6.7%;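 note: stock transfer was 7.5 nL into about 10 µL; 0% = median of vehicle wells and 100% = median of positive control wells; one replicate is shown; the record names a cut of 25% in any replicate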
# Vif A3G – HIV-1 Vif–A3G interaction blockers – biochemical, TR-FRET, GST-Vif 1-94, biotin-A3G peptide, dose response retest, primary screen (AID 1117319). TR-FRET GST-Vif / biotin-A3G peptide binding; higher % means a stronger effect; test concentration not given here; strong numbers were not always called active. inhibition, %; hits with a dose series show IC50 in µM. 0.57% of 260,000 active;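 active = above the screen mean plus three standard deviations and confirmed in dose response; inconclusive = results disagree or hit not tested in dose response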;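 note: Vif residues 1-94 fused to GST binding biotinylated APOBEC3G peptide 110-148; 0% = full assay without inhibitor and 100% = GST in place of GST-Vif; retest series ran down from 100 µM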
# Beta apoptosis – beta cell apoptosis inhibition; AID 435005; INS-1E cytokine-induced death, ATP luminescence, 48 h; percent of positive-control rescue, neutral wells zero; protection from apoptosis, % (no concentration beside the values); 0.8% of 300,000 active;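 active = all replicates at 75% or more, or half of them and the mean; inconclusive = half reach 75% but not the mean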;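 note: 0% = cytokine-treated negative control wells and 100% = positive control rescue; higher means more ATP so stronger rescue from cytokine killing; wells of about 40 µL received 100 nL stock; the first replicate is given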
# T cruzi inh – blocks replication of Trypanosoma cruzi. T. cruzi beta-gal in NIH3T3, luminescence, 90 h. inhibition, % (test concentration not listed). 1.4% of 300,000 active. AID 1885;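 active = mean inhibition across valid replicates above about 55%, limit read from the data; inconclusive = mean below that limit but half or more replicates reach it; inactive = mean below it, under half of replicates reach it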;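 note: signal also drops with host cell toxicity which is not excluded here; 0% = plate median of DMSO wells and 100% = zero luminescence signal; higher percent means less beta-gal luminescence so fewer parasites; stock transfer was 50 nL into about 50 µL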
# MLL AF4-AF9 inh – blocks AF4 peptide binding to human AF9 | P42568 | AlphaScreen, biotin-AF4 peptide binding to FLAG-AF9 | inhibition, % at 10 µM | 0.47% of 350,000 active | AID 651704;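 active = every replicate reaching a set inhibition limit, whatever the replicate mean, cut at about 25% in these data; inconclusive = mean inhibition reaches that limit but some replicates miss it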;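 note: 0% = plate neutral control median and 100% = total signal loss; the record names both 10 and 1 µM as test concentration; the first replicate is given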
# Target sequence (P42568 whole entry, looked up): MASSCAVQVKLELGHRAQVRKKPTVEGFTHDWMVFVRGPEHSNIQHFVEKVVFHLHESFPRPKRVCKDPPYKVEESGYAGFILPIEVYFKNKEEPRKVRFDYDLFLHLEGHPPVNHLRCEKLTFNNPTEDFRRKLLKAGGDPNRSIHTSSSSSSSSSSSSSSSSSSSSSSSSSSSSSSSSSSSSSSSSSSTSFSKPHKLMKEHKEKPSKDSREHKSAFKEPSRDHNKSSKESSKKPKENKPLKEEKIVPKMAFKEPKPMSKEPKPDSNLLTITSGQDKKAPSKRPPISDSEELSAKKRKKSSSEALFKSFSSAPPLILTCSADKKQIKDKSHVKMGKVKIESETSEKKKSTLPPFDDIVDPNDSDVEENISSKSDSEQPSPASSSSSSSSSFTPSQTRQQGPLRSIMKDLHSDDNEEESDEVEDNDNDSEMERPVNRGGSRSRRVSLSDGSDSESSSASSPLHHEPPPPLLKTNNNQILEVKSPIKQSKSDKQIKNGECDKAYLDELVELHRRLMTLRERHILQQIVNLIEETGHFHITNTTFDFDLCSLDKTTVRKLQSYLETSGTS
# RanGTP-Impb inh – inhibitors of RanGTP-importin-beta interaction, primary screen, biochemical, FRET, CFP-Ran, YFP-importin-beta, homogeneous | inhibition, % (test concentration not listed) | cell-free CFP-Ran/YFP-importin-beta FRET ratio | 1.1% of 300,000 active;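 active = most replicates above 15%; inconclusive = exactly half above 15%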;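 note: 0% = DMSO wells and 100% = Ran loaded with GDP instead of GTP; wells of about 40 µL received 100 nL stock; the first replicate is given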
# Calb FLC – C. albicans growth modulation with fluconazole. C. albicans CaCi-2 (fluconazole-resistant clinical isolate) + fluconazole, Alamar Blue growth, 48 h. growth inhibition, % (test concentration not listed). 0.57% of 300,000 active;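 active = most replicates above 75%; inconclusive = exactly half above 75%; inactive = most below 75%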;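 note: all wells also contain fluconazole at 8 µg/ml as a sub-toxic cotreatment; 0% = median of DMSO wells and 100% = median of geldanamycin control wells; wells of about 8 µL received 7.5 nL stock; the first replicate is given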
# Bfl-1 A1 inh – inhibitors of the anti-apoptotic protein A1, read as caspase activation. 0.066% of 330,000 active. caspase activation, % (no concentration beside the values). MEF A1-2A-BIM cells, Caspase-Glo 3/7 luminescence, 3 h; percent of clofoctol response, vehicle zero;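 active = over half of replicate activation scores above 10%, or exactly half above 10 with the replicate mean above 10; inconclusive = replicate mean below 10 yet half the replicates above 10; inactive = over half of replicates below 10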;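 note: wells of about 30 µL received 50 nL stock; many hits fall short of the cut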
# * marks the source's active call; other numbers are inactive results; ? = inconclusive; . = not tested or not shown; & = joins results of further samples.
SMILES,LANA-H2B inh,Vif A3G,Beta apoptosis,T cruzi inh,MLL AF4-AF9 inh,RanGTP-Impb inh,Calb FLC,Bfl-1 A1 inh
CCOC(=O)C1C(=O)CC(C)(O)C(C(=O)OCC)C1c1ccc([N+](=O)[O-])cc1 (stereo not drawn),-0.3,.,-1,17,-2.0,-0.3,0,0.6
COC(=O)CC1C(=O)NC(C)=C1C(=O)OC (stereo not drawn),-4.0,.,-9,0,.,-1.3,1,-0.6
Nc1c(NC2CCCCC2)c2ccccc2oc1=O,0.5,-2%,0,21,.,4.0,15,-0.1
Cc1cccnc1NC(=O)CCNC(=O)c1ccc(Cl)cc1,-1.9,-5%,4,-15,0.7,3.9,-8,0.8
O=C(COC(=O)c1cncc(Br)c1)NCc1ccccc1Cl,-8.5,0%,-3,-12,-0.5,0.7,?,-0.9
O=C(c1ccco1)N1CCN(S(=O)(=O)c2ccc(S(=O)(=O)NC3CCCCC3)cc2)CC1,2.5,8%&-9%,0,17,.,-1.6,10,-0.8
O=C(Nc1nn[nH]n1)c1cccc([N+](=O)[O-])c1,-256,1%,-3,-19,-1.1,6.3,0,-0.7
COc1ccc(CC(NC(C)=O)C(=O)NC2CCN(C(=O)c3cc(OC)c(OC)c(OC)c3)CC2)cc1 (stereo not drawn),3.5,.,-1,-14,-0.2,-1.2,1,-0.4
Cc1ccccc1C(=O)N/N=C1\SCC(=O)N1Cc1ccco1,-0.5,3%,-8,11,-0.6,0.4,12,-0.1
O=C(CCn1cccc(C(F)(F)F)c1=O)Nc1cccc(C(F)(F)F)c1,3.4,0%,-3,-1,-5.1,0.6,4,-1.0
COc1cc(C(c2c(C)[nH][nH]c2=O)c2c(C)[nH][nH]c2=O)cc(OC)c1OC,0.8,.,.,-5,-4.6,-5.2,5,1.0
COc1ccc2c(c1)[n+](=O)c(C(C)=O)c(C)n2[O-],1.3,30%,-5,-11,.,4.8,-5,1.2
O=C1NN=COc2ccccc21,2.8,2%,-3,-9,0.4,8.8,29,-0.1
O=C(CSc1nc2scc(-c3ccccc3)c2c(=O)[nH]1)Nc1ccccc1,2.4,.,-2,-16,-0.7,4.3,1,-0.3
CC1CCN(CCOc2ccc(OCc3ccccc3)cc2)CC1,-7.6,-6%,10,50,8.8,3.6,1,-0.6
COc1ccc(C(=O)CC(=O)C(=O)Nc2ccccc2C(F)(F)F)cc1,-1.3,5%,16,5,7.5,?,-14,0.3
Cn1cc(C(=O)N/N=C/c2cccs2)c2ccccc21,1.7,15%,0,2,.,1.1,16,-1.2
O=C1CCN(CCc2ccccc2)CCN1[C@H](COc1ccccc1)Cc1ccccc1,-2.4,.,0,33,4.6,1.1,-5,0.3
O=C(Nc1ccc(Cl)cc1)C1CCN(C(=O)NC2CCCCC2)CC1,2.5,-5%,-2,-7,.,-2.4,-3,-0.1
O=C(Nc1cccc2ccccc12)C1CCCC1,2.1,.,.,-8,-13,1.2,-2,0.5
COc1ccc(C(=O)NCCc2c[nH]c3ccccc23)cc1,-1.4,.,6,-14,7.3,4.2,-17,-1.7
O=C(N/N=C/c1coc2ccccc2c1=O)c1cn(-c2ccccc2)nc1-c1ccc(F)cc1,0.5,-4%,-17,-12,.,3.7,-10,1.0
O=C(N/N=C\c1cccs1)c1sccc1-n1cccc1,-0.7,.,-6,-9,12,-0.2,38,-0.3
Cc1cc(Br)c2c(c1)/C(=C/C(=O)c1cccs1)C(=O)N2,-4.5,11%,8,58*,0.5,0.2,-3,-0.2
COc1ccc(NC(=O)C(Cc2ccccc2)n2cccc2)c(OC)c1 (stereo not drawn),3.6,3%,7,7,7.4,-0.8,-5,0.6
SMILES,LANA-H2B inh,Vif A3G,Beta apoptosis,T cruzi inh,MLL AF4-AF9 inh,RanGTP-Impb inh,Calb FLC,Bfl-1 A1 inh
CCc1ccc(NC(=O)COc2coc(CN3CCN(c4ccccc4)CC3)cc2=O)cc1,-0.3,-7%,.,-8,-1.5,7.7,0,-0.2
COc1cccc(NC(=O)N2CCC(N3CCCCC3)CC2)c1,2.8,19%,-1,5,.,-3.2,-21,2.1
COCCN(CC(=O)Oc1ccccc1P(=O)(OC)OC)Cc1ccccc1,-7.2,.,-1,-29,-3.2,8.5,7,0.0
C#CCNC(=O)C1=C[C@H](c2ccc(C(F)(F)F)cc2)C[C@H](OCCCCO)O1,1.2,-3%,5,-7,-0.2&0.0,0.8,3,0.1
CC(C)(C)Cc1nnc(NC(=O)Cc2cccs2)s1,-0.8,22%,.,-24,-2.0,4.6,-13,0.2
C=CCn1cccc(C(=O)Nc2ccc(C)c(C)c2)c1=O,-0.4,1%,-1,-7,-1.5,-2.0,-5,-2.2
CC(C)CNC(=O)[C@@H]1CSC2c3ccccc3C(=O)N21 (stereo partly drawn),7.6,-2%,-10,-9,-5.7,-3.6,8,1.0
Cn1cc(CN2CCC(C(=O)N3CCCCC3)CC2)c(-c2ccccc2F)n1,-15,4%,-5,-19,-2.5,11,8,1.4
CCc1ccc(NC(=O)C2CCN(S(=O)(=O)c3ccc4[nH]c(=O)ccc4c3)CC2)cc1,4.1,2%,-3,-5,-4.4,1.7,12,-0.6
CCOc1cc(C=O)ccc1OCc1cc(=O)n2cc(C)ccc2n1,-4.0,?,-3,-3,-2.2,?,?,0.3
CC1(C)C2CC=C(/C=N/NC(=O)c3ccccc3O)C1C2 (stereo not drawn),-3.2,12%,-10,9,5.2,2.0,?,0.7
O=C(c1cn(-c2ccccc2)nc1-c1cccnc1)N1CCN(S(=O)(=O)c2ccccc2F)CC1,.,-12%,-8,.,1.0,.,.,-0.2
NNC(=O)c1oc2nc(-c3ccco3)cc(-c3ccco3)c2c1N,-2.0,.,2,3,1.6,1.6,3,-0.7
CCOC(=O)c1cc(NC(=O)c2ccc(OC)cc2)c(=O)oc1-c1ccccc1,-4.7,3%,5,-15,.,5.1,-12,-0.2
CCCc1nc2ccccc2c(C(=O)OCC(=O)NC2CC2)c1CC,-0.4,.,1,.,0.4,.,.,-0.1
NC(=O)CNC(=O)[C@@H]1CC2(CC(c3ccccc3)=NO2)CN1C(=O)c1ccc(Br)cc1 (stereo partly drawn),-10,-1%,2,-8,-1.1,-0.5,-1,-0.4
Cc1ccc(NC(=O)c2oc3c(c2C)C(=O)CC(C)(C)C3)cc1,-0.9,0%,8,5,.,.,30,0.3
Cc1nnc(SCc2ccc([N+](=O)[O-])cc2)[nH]c1=O,-1.4,-12%,.,-5,-2.7,-0.7,2,0.6
Cc1ccc(N=Cc2c(O)ccc3ccccc23)cc1F,1.8,10%,-18,2,0.9,-0.8,10,0.1
Cc1ccc(CCNC(=O)C2CCN(S(=O)(=O)c3cccc4cccnc34)CC2)cc1,3.2,3%,-2,3,0.2,1.7,-2,0.8
CCOC(=O)C1CN(S(=O)(=O)c2ccc(Cl)cc2)c2cc(S(=O)(=O)CC)ccc2O1 (stereo not drawn),3.4,-1%,.,2,-2.1,-0.1,-12,-0.3
CCOC(=O)c1ccc(NC(=O)CSc2nc3ncccc3[nH]2)cc1,-2.4,.,-1,-3,4.9,1.3,3,-0.4
O=S(=O)(Nc1ncnc2scc(-c3ccc(F)cc3)c12)c1cc(F)ccc1F,-2.3,.,3,-23,-0.3,2.1,11,0.2
COc1ccc(C(=O)Nc2c(Cl)cc(Cl)cc2C(=O)N2CCOCC2)cc1,-0.9,-10%,-8,-9,-0.8,-1.1,1,0.8
CN(CC(=O)Nc1ccc(Cl)c(Cl)c1)C(=O)/C=C/c1ccc(F)cc1,1.8,19%,-7,-20,.,-0.9,0,1.1
SMILES,LANA-H2B inh,Vif A3G,Beta apoptosis,T cruzi inh,MLL AF4-AF9 inh,RanGTP-Impb inh,Calb FLC,Bfl-1 A1 inh
Cc1ccc(S(=O)(=O)N2CCC(C(=O)OCC(=O)N(Cc3ccccc3)C(C)(C)C)CC2)cc1C,.,2%,-4,-3,-13,3.7,2,-0.3
Cc1ccc(S(=O)(=O)N2CCN(C(=O)CN3C(=O)c4ccccc4C3=O)CC2)c(C)c1,5.0,-8%,0,.,0.2,.,.,0.0
COc1ccc(Oc2c(C(F)(F)F)oc3cc(OCC(=O)O)ccc3c2=O)cc1,5.8,-4%,-2,-5,-20,3.7,0,-0.4
Cc1cc(C2=NNC(=NCCc3ccccc3)SC2)c(C)n1CC1CCCO1 (stereo not drawn),-1.3,8%,0,18,12,-3.3,6,-0.2
COc1cccc(C(=O)Nc2ccc(N(C)C)cc2)c1OC,-3.9,5%,-3,24,.,6.8,-6,0.8
O=C(/C=C/c1ccccc1)NCCc1ccc2c(c1)OCCO2,.,-3%,-1,12,2.2,-3.8,?,-1.6
O=C(COC(=O)/C=C/c1cn(-c2ccccc2)nc1-c1ccc2c(c1)OCCO2)NC1CCS(=O)(=O)C1 (stereo not drawn),-1.1,0%,4,10,-17,-3.9,21,-0.4
COc1ccc(S(=O)(=O)NCc2ccccn2)cc1Cl,-10,7%,-1,-25,.,3.5,-1,0.6
N#CC1=C2N=C(N)c3ccccc3N2C2=C(C(=O)CCC2)C1c1cccc(Cl)c1 (stereo not drawn),7.9,1%,-4,21,5.2,1.1,38,-1.0
Cc1cc(-c2ccc(N3CCOCC3)cc2)nc2ccccc12,-0.2,12%,4,-1,-2.7,-2.2,2,-1.4
CCCCSc1nn[nH]n1,-0.1,1%,-3,-4,2.9,4.2,1,-0.5
COc1ccc(CCNC(=O)COC(=O)Cc2c[nH]c3ccccc23)cc1OC,-0.4,-8%,-1,.,0.1,.,.,-0.1
CC(=O)NC12CC3CC(C1)CC(C(=O)OCC(=O)NC(=O)c1cccn1C)(C3)C2,-1.8,13%,0,6,.,-1.7,-5,0.4
CN(C)C(=O)c1ccc(NC(=O)c2cc(-c3ccco3)nc3ccccc23)cc1,3.9,.,-6,-8,0.3,1.9,0,-0.8
C#CCOCCOCCOCCNc1nc(N2CCN(C(=O)[C@H]([C@@H](C)O)n3cc(CCCCN)nn3)CC2)nc(N2CCN(C(=O)[C@H](CCCCN)n3cc(CCCC)nn3)CC2)n1,-3.0,.,-4,.,13,.,.,0.8
CC(=O)C1=C(O)C(=O)N(CCN2CCOCC2)C1c1ccc(N(C)C)cc1 (stereo not drawn),-2.5,0%,-1,-6,.,6.0,12,1.0
O=C(O)C1CCN(C(=O)c2ccccc2C(=O)N2CCC(C(=O)O)CC2)CC1,7.6,-5%,-1,-8,-1.4,2.2,-2,-0.1
Cc1ccc(CNc2ccc3c(c2)ncn3C(C)(C)C)cc1,7.7,-7%,-2,7,15,36*,8,0.6
Cc1ccsc1C1NC(=O)c2ccccc2N1 (stereo not drawn),2.4,16%,-6,-12,-2.9,2.5,7,0.5
O=S1(=O)OCCC(c2ccccc2)N1Cc1ccccc1 (stereo not drawn),1.8,.,-2,-13,2.7,7.0,-4,1.8
S=c1[nH]cc(-c2ccc(Cl)cc2)n1-c1ccccc1,-2.6,.,-6,-1,10,0.9,11,-0.2
CCOC(=O)c1c(S(=O)(=O)NCC(=O)Nc2cc(C)ccn2)c(C)n(C)c1C,3.7,.,-4,-26,-0.9,1.9,1,0.7

# Outcome played no part in choosing rows. About 4.3% of those tested had a hit in this group.
